Screening data as filed in PubChem BioAssay.
Sa ugtP lethal = growth inhibition of ugtP-null S. aureus, primary screen, RN4220 ugtP deletion, OD600; growth inhibition, % (test concentration not listed); AID 1259309, 2017; actives 0.54% (n = 330,000); 16 h; some inactives read as strong as hits;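 active = z-score under -3 and OD600 up to 0.15 on both plates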;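 note: plate controls were untreated wells for no effect and antibiotic for full effect; wells of about 80 µL received 100 nL stock; the first replicate is given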
PrP 5UTR inh = inhibition of PrP 5' UTR reporter expression; cell-based PrP 5' UTR mRNA reporter, plate reader; inhibition, % (test concentration not listed); actives 0.35% (n = 340,000); AID 488862, 2010;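 active = every replicate at 50% or more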;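 note: 0 = median of the neutral control wells; tested in H4 reporter cells; numbers are from one replicate; inactives centre near -14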
Mtb hypoxia inh = PubChem AID 1159583 | M. tuberculosis hypoxia-regulated fluorescent reporter, fluorescence | fluorescence inhibition, % (concentration not given with the values) | actives 0.1% (n = 300,000);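 active = 35 to 45% if threefold the growth effect, above 45% if 1.5-fold the growth effect; inactive = the rest, general growth blockers included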;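 note: wells of about 50 µL received 100 nL stock; 0% = vehicle wells and 100% = reference inhibitor wells; whole bacteria with a GFP reporter of the hypoxia response; strong numbers were not always called active; many hits fall short of the cut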
BJeLR viability = MLPCN primary cell-based screen for lethality selective to Ras in HRASV12 cells; inhibition, % (test concentration not listed); AID 1554, 2009; actives 0.17% (n = 300,000); BJeLR (HRASV12) viability, CellTiter-Glo ATP luminescence, 48 h; reference of the scale not given here;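 active = replicate mean above 50%; inconclusive = above 50% but judged a plate artefact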;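 note: 50 nL library stock added to about 25 µL; numbers are from one replicate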
Bead autofluor = flagged as autofluorescent in microsphere protease counterscreen. compound autofluorescence counterscreen, microsphere flow cytometry; active compounds read high. fluorescence intensity (concentration not given with the values). actives 3.1% (n = 360,000);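 active = at least 3 SD above the mean of all compounds, about 16000 in these data; inconclusive = too few beads counted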;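 note: 100 nL of 1 mM stock went into each well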
Sa RN4220 lethal = growth inhibition of S. aureus RN4220, primary screen, OD600 | 16 h | inhibition, % (no concentration beside the values) | actives 0.33% (n = 330,000) | AID 1259311, 2017;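 active = z-score of -3 or lower and OD600 up to 0.18 on both plates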;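 note: plate controls were untreated cells for no effect and reference antibiotic for full effect; stock transfer was 100 nL into about 80 µL; one replicate is shown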
Mtb hypoxia inh growth = also measured in Mtb hypoxia inh; calls as there; growth inhibition, %; measured here: M. tuberculosis growth (absorbance);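 0% = vehicle and 100% = reference antibiotic; read after six days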
Numbers without * were called inactive; & = joins results of further samples.

`COc1cc(C2C(C(=O)c3sc(C)nc3C)=C(O)C(=O)N2CCN(C)C)cc(OC)c1OC` (configuration not stated) gave Sa ugtP lethal 11, PrP 5UTR inh -24, Bead autofluor 4766 and Sa RN4220 lethal 11.
`CC(C)c1ccc(C2C3=C(COC3=O)Nc3cc4c(cc32)OCO4)cc1` (configuration not stated) gave Sa ugtP lethal 8, PrP 5UTR inh 51, Mtb hypoxia inh -8, BJeLR viability 58*, Bead autofluor 4033, Sa RN4220 lethal 2.6 and Mtb hypoxia inh growth 4.
Screening CCn1cc(C(=O)NCc2ccc3c(c2)OCO3)c(=O)c2cc(S(=O)(=O)N(C)C)ccc21 returned Sa ugtP lethal 7, PrP 5UTR inh -2, Mtb hypoxia inh 4, BJeLR viability -12, Bead autofluor 9237, Sa RN4220 lethal 4.3 and Mtb hypoxia inh growth -3.
Screening COc1ccc(CCNC(=O)C2CCN(S(=O)(=O)N3CCCCCC3)CC2)cc1OC returned Sa ugtP lethal -2, PrP 5UTR inh -20, Mtb hypoxia inh -3, BJeLR viability 7, Bead autofluor 22454*, Sa RN4220 lethal 4.0 and Mtb hypoxia inh growth 4.
For CCOC(=O)C(C)Oc1ccc(NC(=O)C(Cl)(Cl)Cl)cc1 (configuration not stated) the results were Sa ugtP lethal 10, PrP 5UTR inh -38, Mtb hypoxia inh -7, BJeLR viability -3, Bead autofluor 6211, Sa RN4220 lethal 3.3 and Mtb hypoxia inh growth 8.
Screening O=C(NCC(c1ccco1)N1CCCC1)c1cc(S(=O)(=O)N2CCCCC2)ccc1Cl (configuration not stated) returned Sa ugtP lethal 11, PrP 5UTR inh -14, Mtb hypoxia inh -4, Bead autofluor 3067, Sa RN4220 lethal 6.4 and Mtb hypoxia inh growth 2.
CCOC(=O)c1c(C)nc2c(c1-c1ccccc1)C(=O)c1ccccc1-2 was read as Sa ugtP lethal -24, PrP 5UTR inh 5, Mtb hypoxia inh 12, BJeLR viability 1, Bead autofluor 8142, Sa RN4220 lethal 6.6 and Mtb hypoxia inh growth 9.
`CC(C)(OC1OC(CO)C(O)C(O)C1O)[C@H]1Oc2ccc3ccc(=O)oc3c2[C@H]1O` (some centres not stated) gave PrP 5UTR inh -31, BJeLR viability -11 and Bead autofluor 4192.
For CCOC(=O)C1CCN(C(=O)COC(=O)c2cccc(NS(=O)(=O)c3ccccc3)c2)CC1 the results were Sa ugtP lethal 8, PrP 5UTR inh -9, Mtb hypoxia inh -5, Bead autofluor 5040, Sa RN4220 lethal 5.0 and Mtb hypoxia inh growth 0.
For O=C(CCc1ccc(S(=O)(=O)N2CCOCC2)cc1)Nc1ccc2c(c1)OCCO2 the results were Sa ugtP lethal 6, PrP 5UTR inh 2, Mtb hypoxia inh 5, BJeLR viability -5, Bead autofluor 3767, Sa RN4220 lethal 0.5 and Mtb hypoxia inh growth 1.
For CC(C(=O)Nc1cccnc1)N1C(=O)C2C3C=CC(C3)C2C1=O (configuration not stated) the results were Sa ugtP lethal -2, PrP 5UTR inh -23, Mtb hypoxia inh 15, BJeLR viability -13, Bead autofluor 7838, Sa RN4220 lethal 3.1 and Mtb hypoxia inh growth 10.
For Cc1noc(C(=O)N2CCN(c3ccc(F)cc3)CC2)c1Cl the results were Sa ugtP lethal 12, PrP 5UTR inh -11, Mtb hypoxia inh 24, BJeLR viability 3, Bead autofluor 5879, Sa RN4220 lethal 4.1 and Mtb hypoxia inh growth 19.
`O=C(NCC(c1cccnc1)N1CCN(c2ccc(F)cc2)CC1)Oc1ccccc1` (configuration not stated) gave Sa ugtP lethal 3, PrP 5UTR inh -24, Mtb hypoxia inh 7, BJeLR viability 0, Bead autofluor 7946, Sa RN4220 lethal 1.9 and Mtb hypoxia inh growth 9.
For CC1(C(=O)NC2CCCCCCC2)CCC(=O)N1Cc1cccnc1 (configuration not stated) the results were Sa ugtP lethal 4, PrP 5UTR inh -20, Mtb hypoxia inh 4, BJeLR viability 15, Bead autofluor 10199, Sa RN4220 lethal 3.0 and Mtb hypoxia inh growth 12.
`COc1ccc(/C=C/c2ccc3c(Br)ccc(O)c3n2)cc1` gave Sa ugtP lethal 47, PrP 5UTR inh -31, Mtb hypoxia inh 1, BJeLR viability -14, Bead autofluor 3014, Sa RN4220 lethal 49 and Mtb hypoxia inh growth -6.
`Cc1ccc(CNC(=O)C2CCCN(S(C)(=O)=O)C2)cc1` (configuration not stated) gave Sa ugtP lethal 3, PrP 5UTR inh -11, Mtb hypoxia inh 4, BJeLR viability -2, Bead autofluor 6753, Sa RN4220 lethal 0.0 and Mtb hypoxia inh growth 0.
For CCOc1ccccc1NC(=O)C(OC(=O)c1cc(C)oc1C)c1ccccc1 (configuration not stated) the results were Sa ugtP lethal 43, PrP 5UTR inh -7, Mtb hypoxia inh 14, BJeLR viability -3, Bead autofluor 3038, Sa RN4220 lethal -8.9 and Mtb hypoxia inh growth 3.
Screening CCOC(=O)c1ccc(NC(=O)CN2C(=O)NC3(CCC(C)CC3)C2=O)cc1 (configuration not stated) returned Sa ugtP lethal 0, PrP 5UTR inh -30, Mtb hypoxia inh 13, BJeLR viability -2, Bead autofluor 5616, Sa RN4220 lethal -0.9 and Mtb hypoxia inh growth 3.
Screening CCOc1ccc2c(c1)sc(=NS(=O)(=O)c1ccc(OC)cc1)n2C(F)F returned Sa ugtP lethal 2, Mtb hypoxia inh 7, Sa RN4220 lethal -3.1 and Mtb hypoxia inh growth 7.
For CC(C)OCCCn1c(=S)[nH]c2ccc(N3CCOCC3)cc2c1=O the results were Sa ugtP lethal -7, PrP 5UTR inh -58, Mtb hypoxia inh 4, BJeLR viability 2, Bead autofluor 20555*, Sa RN4220 lethal 0.7 and Mtb hypoxia inh growth 5.
For O=C(CSc1ccccn1)N1CCN(c2ncc(C(F)(F)F)cc2Cl)CC1 the results were Sa ugtP lethal 6, PrP 5UTR inh -9, Mtb hypoxia inh 0, BJeLR viability -2, Bead autofluor 3584, Sa RN4220 lethal 1.7 and Mtb hypoxia inh growth 10.
Screening Cc1ccc(NC2CCCN(C(=O)C3CCCCC3)C2)cc1C (configuration not stated) returned Sa ugtP lethal 10, PrP 5UTR inh 10, Mtb hypoxia inh 11, BJeLR viability 11, Bead autofluor inconclusive, Sa RN4220 lethal 6.0 and Mtb hypoxia inh growth 8.
O=C(CN1C(=O)/C(=C/c2ccccc2Cl)SC1=S)NC1CCS(=O)(=O)C1 (configuration not stated) was read as Sa ugtP lethal -3, PrP 5UTR inh -12, Mtb hypoxia inh 4, BJeLR viability -11, Bead autofluor 5444, Sa RN4220 lethal 2.1 and Mtb hypoxia inh growth 2.
For Cc1cccc(N(C(=O)c2snc(C(N)=O)c2N)C(C(=O)NCC2CCCO2)c2ccc(N(C)C)cc2)c1C (configuration not stated) the results were PrP 5UTR inh -12, BJeLR viability 5 and Bead autofluor 4314.
Screening CC(=O)Oc1cccc(C(=O)Nc2ccc3c(c2)C(=O)N(CC2CCCO2)C3=O)c1 (configuration not stated) returned Sa ugtP lethal 1, PrP 5UTR inh 9, Mtb hypoxia inh 2, BJeLR viability -1, Bead autofluor 4796, Sa RN4220 lethal 3.6 and Mtb hypoxia inh growth -16.
COc1cc(/C=N/n2cnnc2)ccc1OCCSc1ccc(C)cc1 was read as PrP 5UTR inh -19, BJeLR viability 3 and Bead autofluor 3210.
For COc1ccc(-c2sc(NC(=O)c3ccc(C)cc3)nc2-c2ccc([N+](=O)[O-])cc2)cc1 the results were Sa ugtP lethal -6, PrP 5UTR inh -14, Mtb hypoxia inh 12, BJeLR viability -7, Bead autofluor 3382, Sa RN4220 lethal 6.0 and Mtb hypoxia inh growth 11.
For CN1C(=O)c2ccccc2NC(=O)[C@]12O[C@@H]2c1cccc(O)c1 the results were Sa ugtP lethal 4, PrP 5UTR inh -11, BJeLR viability 5, Bead autofluor 5357 and Sa RN4220 lethal 16.
For CCOc1ccc(C(CC(=O)O)NC(=O)COc2ccccc2)cc1OC (configuration not stated) the results were Sa ugtP lethal 6, PrP 5UTR inh -23, Mtb hypoxia inh -3, BJeLR viability 1, Bead autofluor 3738, Sa RN4220 lethal 2.5 and Mtb hypoxia inh growth 0.
For Cc1ccccc1C(=O)N1CCC(C(=O)N(C)CCOc2ccccc2)CC1 the results were Sa ugtP lethal 0, PrP 5UTR inh -17, Mtb hypoxia inh -8, BJeLR viability -9, Bead autofluor 5493, Sa RN4220 lethal -2.3 and Mtb hypoxia inh growth 2.
CCOc1ccc(NC(=O)CN2CCN(CC(=O)c3ccc(OC)c(OC)c3)CC2)cc1 was read as Sa ugtP lethal 1, PrP 5UTR inh -5, Bead autofluor 4526 and Sa RN4220 lethal 0.0.
`CC(C)(C)C(=O)Nc1scc(-c2ccc(-c3ccccc3)cc2)c1C(=O)O` gave Sa ugtP lethal 8, PrP 5UTR inh 1, Mtb hypoxia inh 13, BJeLR viability 10, Bead autofluor 3824, Sa RN4220 lethal 27 and Mtb hypoxia inh growth 6.
Screening Cc1ccccc1NC(=O)Cc1nnc(SCC(=O)N2CCOCC2)n1C returned Sa ugtP lethal 6, PrP 5UTR inh -9, Mtb hypoxia inh -4, BJeLR viability 8, Bead autofluor 5480, Sa RN4220 lethal 1.6 and Mtb hypoxia inh growth -7.
For O=c1cc(-c2ccc(O)c(O)c2)oc2cc(O)c(C3OC(CO)C(O)C(O)C3O)c(O)c12 (configuration not stated) the results were Sa ugtP lethal -3&2, PrP 5UTR inh -26, Mtb hypoxia inh 9, BJeLR viability -11, Bead autofluor 5057, Sa RN4220 lethal 0.1&-1.3 and Mtb hypoxia inh growth -5.
For CCCCN(C(=O)CSc1nnc(-c2ccccc2OC)n1C)c1c(N)n(Cc2ccccc2)c(=O)[nH]c1=O the results were PrP 5UTR inh -10, BJeLR viability -8 and Bead autofluor 2493.
For CCOC(=O)C1CCN(C(=O)c2ccccc2NS(=O)(=O)c2ccc(F)c(F)c2)CC1 the results were Sa ugtP lethal 6, PrP 5UTR inh -6, Mtb hypoxia inh 16, BJeLR viability 3, Bead autofluor 1989, Sa RN4220 lethal 8.0 and Mtb hypoxia inh growth 0.
For CCCC(=O)Nc1cc(=O)[nH]c2ncnn12 the results were Sa ugtP lethal -11, PrP 5UTR inh -8, Mtb hypoxia inh -14, BJeLR viability -3, Bead autofluor 5903, Sa RN4220 lethal -4.7 and Mtb hypoxia inh growth 5.
`O=C(/C=C/c1ccccc1Cl)NCCc1ccccc1` gave Sa ugtP lethal -6, PrP 5UTR inh -63, Mtb hypoxia inh 2, BJeLR viability 12, Bead autofluor 21242*, Sa RN4220 lethal -1.0 and Mtb hypoxia inh growth 5.
CC(=O)OC1CC2(C)/C(=N\O)CCC2C2CCc3cc(O)ccc3C12 (configuration not stated) was read as PrP 5UTR inh -14, BJeLR viability -2 and Bead autofluor 4662.
For CCN(CC)CCCNC(=O)c1cc(Sc2nnc(C)s2)nc2ccccc12 the results were Sa ugtP lethal 11, PrP 5UTR inh -12, Mtb hypoxia inh 5, BJeLR viability -11, Bead autofluor 2411, Sa RN4220 lethal -1.3 and Mtb hypoxia inh growth 3.
Screening CCO[C@@H]1c2c(ccc3ccc(=O)oc23)OC(C)(C)[C@@H]1O returned Sa ugtP lethal 1, PrP 5UTR inh -19, Mtb hypoxia inh 8, Bead autofluor 4055, Sa RN4220 lethal -7.7 and Mtb hypoxia inh growth 4.
`COc1ccc(NC(=O)CSCC(=O)N=c2sccn2C)cc1` gave Sa ugtP lethal 2, PrP 5UTR inh -21, Mtb hypoxia inh -3, BJeLR viability 13, Bead autofluor 5500, Sa RN4220 lethal 1.5 and Mtb hypoxia inh growth 4.

Part of the list above in order of heavy-atom count, lowest first.
Screening Cc1ccc(NC2CCCN(C(=O)C3CCCCC3)C2)cc1C (configuration not stated) returned Sa ugtP lethal 10, PrP 5UTR inh 10, Mtb hypoxia inh 11, BJeLR viability 11, Bead autofluor inconclusive, Sa RN4220 lethal 6.0 and Mtb hypoxia inh growth 8.
For Cc1ccccc1C(=O)N1CCC(C(=O)N(C)CCOc2ccccc2)CC1 the results were Sa ugtP lethal 0, PrP 5UTR inh -17, Mtb hypoxia inh -8, BJeLR viability -9, Bead autofluor 5493, Sa RN4220 lethal -2.3 and Mtb hypoxia inh growth 2.
CCOc1ccc(NC(=O)CN2CCN(CC(=O)c3ccc(OC)c(OC)c3)CC2)cc1 was read as Sa ugtP lethal 1, PrP 5UTR inh -5, Bead autofluor 4526 and Sa RN4220 lethal 0.0.
